# Ecoli rRNA inh = reduced GFP signal of wild-type E. coli, primary screen, bacterial rRNA inhibitor project, GFP/RFP fluorescence, OD600, single point; E. coli WT GFP vs humanized-ribosome RFP mutants, 24 h; stronger effect = lower value; DMSO median 0, no signal -100; GFP signal change (wild-type ribosome), % (test concentration not listed); 350,000 tested, 1.6% active; AID 720706, 2013;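 active means significant combined selectivity score with lowered wild-type GFP, culture density cut under 30%, mutant RFP and density less affected; inactive means any of these conditions unmet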; further: one replicate is shown; some compounds called inactive have numbers as strong as hits
# T cruzi repl = inhibitors of intracellular T. cruzi growth, primary screen, luminescence, NIH3T3 host cells; inhibition, % (concentration not given with the values); 300,000 tested, 1.4% active; T. cruzi beta-gal in NIH3T3, 90 h;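 active means mean inhibition across valid replicates above about 55%, limit read from the data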;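 further: signal also drops with host cell toxicity which is not excluded here; 0% = plate median of DMSO wells and 100% = zero luminescence signal; higher percent means less beta-gal luminescence so fewer parasites; stock transfer was 50 nL into about 50 µL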
# FGF22 binding = binders of human FGF22 protein, primary screen, FGF22 synaptogenesis inhibitor project, biophysical, thermal shift, single point; Fibroblast growth factor 22 (Homo sapiens), Q9HCT0; recombinant FGF22 thermal shift, SYPRO orange fluorescence; percent of sucrose octasulfate shift, DMSO zero; calls only at 9.99 µM; 340,000 tested, 1.5% active;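 active means melting point raised past a set limit in the mean and every replicate; three in four hits are not shown here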
# Target sequence (Q9HCT0 whole entry, looked up): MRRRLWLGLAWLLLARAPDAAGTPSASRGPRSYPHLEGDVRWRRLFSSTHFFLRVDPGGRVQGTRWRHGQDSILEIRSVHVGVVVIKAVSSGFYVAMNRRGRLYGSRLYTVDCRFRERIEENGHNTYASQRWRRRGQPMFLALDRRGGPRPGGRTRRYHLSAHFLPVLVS
# UCH37 inh = inhibitors of human UCH37 deubiquitinase, primary screen, biochemical, Ub-AMC cleavage, fluorescence; Ubiquitin carboxyl-terminal hydrolase isozyme L5 (Homo sapiens), Q9Y5K5; purified proteasome/UCH37; inhibition, % (test concentration not listed); 330,000 tested, 0.33% active;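 active means mean of two replicates above 20%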;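 further: 0% = compound-free wells with enzyme and 100% = wells lacking proteasome; stock transfer was 100 nL into about 20 µL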
# Target sequence (Q9Y5K5 whole entry, looked up): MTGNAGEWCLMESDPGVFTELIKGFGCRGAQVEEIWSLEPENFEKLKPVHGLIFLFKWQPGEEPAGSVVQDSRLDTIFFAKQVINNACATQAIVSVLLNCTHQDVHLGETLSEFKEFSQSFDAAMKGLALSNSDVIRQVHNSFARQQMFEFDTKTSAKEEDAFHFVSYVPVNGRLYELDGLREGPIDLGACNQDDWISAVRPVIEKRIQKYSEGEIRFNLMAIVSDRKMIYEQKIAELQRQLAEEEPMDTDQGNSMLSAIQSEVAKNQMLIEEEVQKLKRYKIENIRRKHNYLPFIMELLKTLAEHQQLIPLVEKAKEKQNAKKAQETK
#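 Reagent: Ub-AMC substrate; assay system: Proteasome-associated human UCH37 deubiquitinase; controls: no-proteasome and no-compound wells; read-out: % inhibition of Ub-AMC cleavage fluorescence; timing: 30 min preincubation with enzyme, 25 min cleavage at room temperature; signal: AMC fluorescence from Ub-AMC cleavage, excitation 355 nm, emission 460 nm; buffer or medium: Tris-HCl pH 7.4 plus ovalbumin, ATP-MgCl2, DTT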
# AF4-AF9 inh = inhibitors of AF4 peptide binding to AF9, primary screen, biochemical, AlphaScreen, biotin-AF4 peptide, FLAG-AF9, single point. Protein AF-9 (Homo sapiens), P42568. inhibition, % at 10 µM. 350,000 tested, 0.47% active. AID 651704, 2012;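 active means every replicate reaching a set inhibition limit, whatever the replicate mean, cut at about 25% in these data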;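 further: 0% = plate neutral control median and 100% = total signal loss; the record names both 10 and 1 µM as test concentration; the first replicate is given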
# Target sequence (P42568 whole entry, looked up): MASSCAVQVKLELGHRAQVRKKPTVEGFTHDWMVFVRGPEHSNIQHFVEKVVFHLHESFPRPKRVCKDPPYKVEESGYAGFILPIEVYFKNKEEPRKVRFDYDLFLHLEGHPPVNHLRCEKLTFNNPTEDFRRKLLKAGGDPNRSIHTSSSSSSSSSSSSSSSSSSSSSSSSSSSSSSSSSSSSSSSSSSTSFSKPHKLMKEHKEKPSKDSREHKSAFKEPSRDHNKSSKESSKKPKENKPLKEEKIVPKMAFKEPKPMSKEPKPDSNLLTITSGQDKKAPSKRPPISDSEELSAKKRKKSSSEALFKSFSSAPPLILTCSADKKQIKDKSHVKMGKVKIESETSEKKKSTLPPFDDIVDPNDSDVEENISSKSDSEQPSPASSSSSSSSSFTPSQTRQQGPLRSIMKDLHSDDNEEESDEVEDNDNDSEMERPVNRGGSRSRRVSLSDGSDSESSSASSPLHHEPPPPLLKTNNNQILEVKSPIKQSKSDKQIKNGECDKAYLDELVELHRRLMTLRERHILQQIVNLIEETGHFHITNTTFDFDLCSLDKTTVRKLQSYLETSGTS
# E coli growth = E. coli growth inhibition, primary screen, OD600. Escherichia coli growth, 23 h; stronger effect = lower value. OD600 absorbance (no concentration beside the values). 330,000 tested, 0.21% active. AID 1053175, 2014;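 active means OD600 absorbance below the run mean of sample wells minus 3.6 SD, in any replicate, cut at about 0.56 in these data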;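 further: stock transfer was 300 nL into about 60 µL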
# Bfl-1 A1 inh = caspase 3/7 activation in MEF A1-2A-BIM cells, primary screen, A1 inhibitor project, cell-based, luminescence, HTS | Caspase-Glo 3/7 luminescence, 3 h; percent of clofoctol response, vehicle zero | caspase activation, % (concentration not given with the values) | 330,000 tested, 0.066% active | AID 2462, 2010;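 active means over half of replicate activation scores above 10%, or exactly half above 10 with the replicate mean above 10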;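 further: wells of about 30 µL received 50 nL stock; many hits fall short of the cut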
# Beta apoptosis = inhibitors of cytokine-induced beta cell apoptosis, primary screen, luminescence. protection from apoptosis, % (no concentration beside the values). INS-1E cytokine-induced death, ATP luminescence, 48 h; percent of positive-control rescue, neutral wells zero. AID 435005, 2010. 300,000 tested, 0.8% active;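 active means all replicates at 75% or more, or half of them and the mean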;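 further: 0% = cytokine-treated negative control wells and 100% = positive control rescue; higher means more ATP so stronger rescue from cytokine killing; wells of about 40 µL received 100 nL stock; the first replicate is given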
# Ecoli rRNA inh OD600 = further read-out of Ecoli rRNA inh, marked with its call; OD600 change, %; measured here: OD600 growth;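 optical density of the mix in the first replicate; 0 = DMSO median and -100 = no signal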
# Ecoli rRNA inh RFP = further read-out of Ecoli rRNA inh, marked with its call; RFP signal change, %; measured here: RFP humanized mutant strains;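 first replicate; 0 = DMSO median and -100 = no signal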
# An asterisk follows results filed as active; i = inactive; / = not tested or not shown. This is a subset; count on the stated rates, not on these rows.
SMILES,Ecoli rRNA inh,Ecoli rRNA inh OD600,Ecoli rRNA inh RFP,T cruzi repl,FGF22 binding,UCH37 inh,AF4-AF9 inh,E coli growth,Bfl-1 A1 inh,Beta apoptosis
COc1cccc(-c2nc(-c3ccccc3)no2)c1,/,/,/,4,/,6.0,/,0.71,-9.6,-1
O=C(N/N=C/c1ccc(F)cc1)c1cccc(NC(=O)c2ccc(F)cc2)c1,3,14,-0.3,2,i,/,-6.7,/,-0.6,-2
O=C(c1cccc(C(=O)N2CCN(c3ccc(F)cc3)CC2)c1)N1CCN(c2ccc(F)cc2)CC1,-44,-65,-7.2,-3,i,3.7,0.6,0.69,0.3,4
CCCCN(C)CCNC(=O)Cn1c(=O)sc2ccccc21,8,7,1.7,38,i,9.3,1.7,0.74,1.0,0
Cc1ccc(-n2c(CNc3ccc(C)c(Cl)c3)n[nH]c2=S)cc1,-63,-81,-20,-10,i,2.6,1.5,0.71,0.1,-3
CN=C1S/C(=C/c2cn(CC(=O)OC)c3ccccc23)C(=O)N1C,/,/,/,-16,i,3.6,2.7,0.63,-0.5,0
CCN(CC)CCCNC(=O)CCC(=O)Nc1ccc2nc(N3CCCCC3)cc(C)c2c1,7,2,-1.5,-15,i,-209,-7.5,0.69,0.6,-1
CCS(=O)(=O)c1nc2ccccc2n1Cc1ccccc1Cl,6,-29,-4.1,-10,i,4.1,-4.8,0.73,3.5,-11
O=C1CS/C(=N/N=C/c2ccco2)N1Cc1ccc(F)cc1,3,-1,3.8,10,i,/,/,/,1.5,-5
O=C(Cc1cccs1)Nc1nnc(-c2ccc(F)cc2)s1,0,3,5.6,7,/,/,-1.8,/,-1.2,0
CCC1CCC(N2CCN(c3ccccc3F)CC2)CC1 (stereo not given),-6,-3,2.8,-10,i,0.2,3.5,0.63,-1.2,4
COC(=O)C1=C(C)N(C)C(=S)NC1c1cc(OC)ccc1OC (stereo not given),14,13,-4.4,-19,i,2.2,0.2,0.69,-0.8,-5
O=C(CCCSc1nc2ccccc2[nH]1)NC1CCCCC1,-15,-20,-4.5,-22,i,-2.3,-0.2,0.6,-0.5,-3
COc1ccc(CCN(C)C(=O)CNC(=O)c2ccc3c(c2)OCO3)cc1OC,1,11,0.0,6,i,0.6,0.3,0.65,-1.6,-6
Cn1c(=NC(=O)c2ccc3c(c2)OCCO3)sc2cc(S(C)(=O)=O)ccc21,9,15,-2.6,-11,i,-9.3,-0.4,0.73,-0.8,4

# Single records, from the list above. Screens in order: Ecoli rRNA inh | Ecoli rRNA inh OD600 | Ecoli rRNA inh RFP | T cruzi repl | FGF22 binding | UCH37 inh | AF4-AF9 inh | E coli growth | Bfl-1 A1 inh | Beta apoptosis
# O=C1CS/C(=N/N=C/c2ccco2)N1Cc1ccc(F)cc1 in the list: 3 | -1 | 3.8 | 10 | i | / | / | / | 1.5 | -5
# O=C(Cc1cccs1)Nc1nnc(-c2ccc(F)cc2)s1 in the list: 0 | 3 | 5.6 | 7 | / | / | -1.8 | / | -1.2 | 0
# O=C(c1cccc(C(=O)N2CCN(c3ccc(F)cc3)CC2)c1)N1CCN(c2ccc(F)cc2)CC1 in the list: -44 | -65 | -7.2 | -3 | i | 3.7 | 0.6 | 0.69 | 0.3 | 4

# Next records follow.
SMILES,Ecoli rRNA inh,Ecoli rRNA inh OD600,Ecoli rRNA inh RFP,T cruzi repl,FGF22 binding,UCH37 inh,AF4-AF9 inh,E coli growth,Bfl-1 A1 inh,Beta apoptosis
O=C(CSc1nnc(CN2CCOCC2)n1-c1ccc(Cl)cc1)Nc1ccc2c(c1)OCO2,/,/,/,-1,/,-2.7,/,0.65,0.1,-4
N=C1S/C(=C\c2ccccc2)C(=O)N1c1ccc(F)cc1,15,13,0.4,4,i,0.7,-4.9,0.69,0.3,-8
COc1cccc(C2=NOC(C(=O)Nc3cccc(C(C)=O)c3)C2)c1 (stereo not given),/,/,/,2,/,5.2,/,0.66,0.5,2
COc1cccc(N(C(=O)c2snc(C(N)=O)c2N)C(C(=O)NCC2CCCO2)c2ccc(F)cc2)c1 (stereo not given),3,-4,-2.2,0,i,-88,0.1,0.66,0.8,3
O=C(CSCc1ccc(F)cc1)NC1CCCC1,/,/,/,-12,/,2.0,/,0.69,0.4,-7
COc1cc(C(=O)OCC(=O)N(CC(C)C)C2CCS(=O)(=O)C2)ccc1OCC(C)C (stereo not given),6,15,-0.9,2,i,3.3,1.6,0.71,-0.1,-2
COc1ccc(CCNc2cn[nH]c(=O)c2Cl)cc1OC,8,6,-0.2,-21,i,5.0,-0.7,0.67,1.0,2
CC(=O)c1ccc(OCCCC(=O)Nc2cccc(S(=O)(=O)N3CCOCC3)c2)cc1,-3,-12,0.8,/,i,0.2,-1.1,0.63,0.4,-3
COc1ccccc1Nc1nc(N)nc(CSCCO)n1,/,/,/,-2,/,-0.2,/,0.75,-0.2,-3
COc1ccc(NC(=O)N2CCC(n3cnc4ccccc43)CC2)cc1,4,-5,-2.3,0,i,-1.3,-1.0,0.69,0.7,6
Cc1c(NC(=O)c2cc(-c3ccccc3O)on2)c(=O)n(-c2ccccc2)n1C,6,4,-4.5,-5,i,/,0.3,/,0.5,2
CCOC(=O)Cn1c2c(c(=N)c3c1CCC3)CCC2,/,/,/,-11,/,4.8,/,0.75,-0.7,-5
CCN(CC(=O)Nc1ccc(OC)cc1)C(=O)CSCC(=O)Nc1ccc(C)cc1,0,0,0.9,3,i,-1.1,-1.6,0.63,0.4,-4
O=C(CN1CCN(C/C=C/c2ccccc2)CC1)NCc1ccc(Cl)cc1,3,-1,12,34,i,3.8,-7.1,0.69,0.1,3
O=C(Nc1ncn[nH]1)c1cccc(S(=O)(=O)N2CCOCC2)c1,8,7,0.1,-10,/,5.0,-3.8,0.66,-0.5,/
O=C(Cc1noc2ccccc12)Nc1ccc(Cl)cc1,8,10,-6.1,-3,i,1.5,-5.0,0.62,-1.5,-4
CCOC(=O)N1CCN(c2ccc([N+](=O)[O-])cc2F)CC1C (stereo not given),/,/,/,15,i,5.8,3.1,0.68,0.0,8
NS(=O)(=O)c1cc([N+](=O)[O-])ccc1NCc1cccnc1,2,5,-3.4,-7,i,11,-7.0,0.7,-0.9,-1
O=C1CN(C(=O)CCN2CCOCC2)C(c2ccccc2)c2cc(Br)ccc2N1 (stereo not given),/,/,/,13,/,-0.1,/,0.7,-0.4,-4
O=C(CC1NC(=O)NC1=O)Nc1ccccc1 (stereo not given),/,/,/,-21,/,3.0,/,0.67,-0.3,-3
CN(C)c1ccc(/C=N/NC(=O)c2ccccn2)cc1,/,/,/,13,i,/,0.7,/,-8.2,21
CC#CCNCc1ccccc1,/,/,/,-7,/,2.8,/,0.72,0.2,-9
Clc1cc(NCc2cccs2)ccc1N1CCOCC1,/,/,/,-12,/,3.6,/,0.68,-0.1,3
Cc1cc(C)cc(C(=O)NCC(=O)OCC(=O)NCc2ccco2)c1,23,6,1.4,-7,i,-0.7,1.0,0.65,-0.3,-3
COc1ccccc1CN1CCCC(CN(CCN(C)C)C(=O)c2ccc(C)cc2)C1 (stereo not given),4,10,-1.4,15,i,2.1,0.2,0.68,-0.6,-3
Cc1ccc(-n2c(-c3ccccc3)c[nH]c2=S)cc1,13,12,-0.9,1,i,4.0,7.7,0.67,-0.1,-2
CCOC(=O)c1c(CC(C)C)csc1NC(=O)COC(=O)C1=NNC(=O)CC1,-12,-22,-6.6,-6,i,0.5,0.8,0.69,-0.3,0
COc1ccc(C2C3=C(CC(C)(C)CC3=O)Nc3nc(C)nn32)cc1OC (stereo not given),13,7,-0.1,-15,i,0.5,-0.4,0.63,0.8,-8
Cc1oc2ccc(Br)cc2c(=O)c1-c1nn[nH]n1,-13,-3,-1.5,-4,i,6.1,-1.1,0.67,-0.4,-2
OC(COc1ccc(Cl)cc1)CN1CCN(c2ccccc2)CC1 (stereo not given),-1,-3,0.6,17,i,2.6,0.6,0.66,1.7,1
N#Cc1cnn2c(C(F)(F)F)cc(-c3ccccc3)nc12,9,3,0.6,-4,i,-46,-3.6,0.67,-0.5,-2
Cn1c(O)c(N=Nc2ccccc2[N+](=O)[O-])c2ccccc21,13,7,2.1,-4,i,3.0,-11,0.59,-0.1,-1
COc1cc2c(cc1OC)C1=C(C#N)CN(CC(=O)O)CN1CC2,9,6,-4.8,2,i,-4.0,2.8,0.67,1.0,5
Cc1cc(C)c(S(=O)(=O)N2CCC(C(=O)NCc3ccncc3)CC2)c(C)c1,-7,-10,-0.4,-1,i,0.5,0.6,0.64,0.4,0
CCOC(=O)CSc1nc(-c2ccccc2)ns1,-18,-8,-0.1,-7,i,1.7,-2.0,0.65,-6.1,-6
CCN=C(NCC)SC1CC(=O)N(c2cccc(OC)c2)C1=O (stereo not given),/,/,/,21,/,1.3,/,0.7,0.3,-4
CCOC(=O)c1c(S(=O)(=O)NCC(=O)Nc2ccc(OC)cc2)c(C)n(C)c1C,7,8,0.2,-5,i,0.0,-0.5,0.7,0.3,-11
c1ccc(-c2cccc(-c3ccccc3)n2)cc1,-3,-1,0.2,-12,i,1.2,-0.1,0.61,-0.5,-4
CC1CC(C)CN(C(=O)C2CCN(C(=O)Nc3ccccc3)CC2)C1 (stereo not given),0,-1,1.5,2,i,/,-1.7,/,1.1,-7
COc1ccc(CCNC(=O)C2CCN(c3nn4c(=O)cc(C)nc4s3)CC2)cc1OC,/,/,/,-2,/,28*,/,0.67,0.6,2
CN(C)CCCn1c(SCC(=O)N2CC(=O)Nc3ccccc32)nc2ccccc2c1=O,2,2,1.2,25,i,0.8,1.1,0.7,-0.1,-14
CS(=O)(=O)c1cccc(C(=O)Nc2ccc3c(c2)OCCCO3)c1,3,5,-1.5,-3,i,/,-0.4,/,0.1,-1
CCOC(=O)c1c(O)c(O)c(C(=O)OCC)n1-c1ccccc1,13,6,-0.6,0,i,3.3,/,0.68,0.7,-8
Cc1cccc(Oc2ccc(C(=O)NC3CCSC3=O)cn2)c1C (stereo not given),/,/,/,8,/,5.1,/,0.79,0.6,-24
COc1cc2c(cc1NC(=O)CSc1nc3cc(Cl)ccc3s1)oc1ccccc12,/,/,/,8,/,-0.3,/,0.69,0.7,31
CC(=O)N1CCc2cc(S(=O)(=O)N3c4ccccc4CC3C)ccc21 (stereo not given),11,0,0.4,3,i,2.3,-13,0.69,0.0,12

# Source: PubChem BioAssay (several laboratories)
